# High-throughput results from PubChem BioAssay.
# Ab BasE inh = BasE siderophore enzyme inhibitors, primary screen, biochemical, Acinetobacter baumannii ATCC 17978, fluorescence polarization; purified BasE, fluorescence polarization binding displacement; inhibition, % (no concentration beside the values); 0.1% of 84,000 active; AID 485350, 2010;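 active = both replicates above 25% with normal brightness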;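 note: 0% = negative plate control signal and 100% = positive plate control signal; stock transfer was 100 nL into about 30 µL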
# KSHV LANA nucl = inhibitors of KSHV LANA-nucleosome binding, primary screen, biochemical, fluorescence polarization, FITC-LANA1-23, chicken nucleosomes; z-score (concentration not given with the values); FITC-LANA1-23 / chicken nucleosome fluorescence polarization; hits give low values; 0.3% of 51,000 active;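 active = both repeat wells score below -2 in polarization z-score versus plate sample wells, excluding overly bright wells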;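 note: 100 nL library stock added to about 30 µL; numbers are from one replicate; some results filed as inactive read as strong as hits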
#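 System – purified chicken nucleosomes with FITC-labelled LANA N-terminal peptide (1-23) · Amount – 240 nM purified chicken nucleosomes (480 nM peptide binding sites), final · Also added – 50 nM FITC-LANA1-23 probe · Medium – TEN-BT buffer, pH 7.5 · Incubation – compound with peptide–nucleosome mix 10–45 min at room temperature · Detection – fluorescence polarization, ex 480 nm, em 535 nm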
# An asterisk follows results filed as active; . = no result given; & = joins results of further samples. The list is partial; count on the stated rates, not on these rows.
SMILES,Ab BasE inh,KSHV LANA nucl
O=C(CCn1c(=O)oc2ccccc21)N1CCc2ccccc21,2.2,-0.85
CC(C#N)OC(=O)Cn1cc(C(F)(F)F)ccc1=O (stereo not given),3.4,.
O=C(CNC(=O)c1ccccc1F)OCc1nc2ccc(Cl)cc2n1CCO,-0.7,.
COc1ccc(Nc2nccc(-c3ccc(N)cc3)n2)cc1,2.4,0.038
Cc1nnc(SC2CCNCC2)s1,0.2,-1
CC(=O)N/C(N)=N\c1nc(C)c2ccc(C)cc2n1,1.1,-0.28
Cc1nn(C2CCS(=O)(=O)C2)c(Cl)c1/C=C/C(=O)OCn1nnc2ccccc2c1=O (stereo not given),0.9,.
O=C(CC(=O)Nc1ccccn1)Nc1ccccn1,.,0.43
Cc1cccc(-c2noc(CCCC(N)=O)n2)c1,2.1,-0.15
CC(C)(C)OC(=O)N1CCN(C(=O)c2ccc(Oc3cccnc3)o2)CC1,-1.2,.
Nc1ccccc1C(=O)CSc1ccccn1,1.8,0.38
Cc1cc(NC(=O)CSc2ccccc2)no1,3.3,0.041
COc1ccc(-n2cc3c(c(C#N)c2=N)CC(C)(C)CC3=O)c(OC)c1,-13,-1.5
CCc1nnc(NC(=O)c2ccc3c(c2)S(=O)(=O)c2ccccc2C3=O)s1,0.4,.
CCCN(CCC)Cn1nc(-c2ccc3c(c2)OCO3)oc1=S,1.2,.
COc1ccc2c(CNC3CCCCCC3)c(C(=O)O)[nH]c2c1,-3.4,2
O=C(SC1=NCCS1)c1cccc(Cl)c1,-0.4,.
N[n+]1cnn(CC(=O)c2ccc(Cl)cc2)c1,-2.8,1.5
CCOc1ccc2nc(NCCNC(=O)c3cc(OC)c(OC)c(OC)c3)c(C#N)cc2c1,3.8,0.36
C=CCN1C(=O)/C(=C/c2ccco2)S/C1=N/c1nccs1,1.0,0.87
O=C(Cc1nc2ccccc2s1)c1ccc(O)cc1O,22,.
O=C1CCc2cc(S(=O)(=O)N3CCCC3)cc3c2N1CCC3,2.6,-0.23
CCC(=O)Nc1cc(OC)c(OC)c(OC)c1,2.0,0.55
CCN(c1ccccc1)S(=O)(=O)c1ccc(Oc2ccc(-n3ccnc3)cc2)nc1,1.6,.
C=CCC1CCCCC12NC(=O)N(c1ccccc1)N2 (stereo not given),-0.1,-0.26
CN1CCN(c2oc(COc3ccccc3F)nc2C#N)CC1,-2.0,0.57
CS(=O)(=O)N1CCN(C(=O)CCC(=O)O)CC1,-1.4,-1.6
O=c1[nH]c2ccccc2c(=O)n1CCc1nc(-c2ccccc2)no1,0.1,0.4
O=C(CSc1nnc(-c2ccco2)n1C1CCCCC1)c1ccc2[nH]c(=O)oc2c1,-6.6,.
COC(=O)c1nnn(-c2nonc2N)c1C(=O)OC,0.4,0.11

# Two compounds picked at random from those above, as already listed:
SMILES,Ab BasE inh,KSHV LANA nucl
CCN(c1ccccc1)S(=O)(=O)c1ccc(Oc2ccc(-n3ccnc3)cc2)nc1,1.6,.
CS(=O)(=O)N1CCN(C(=O)CCC(=O)O)CC1,-1.4,-1.6

# Other records.
SMILES,Ab BasE inh,KSHV LANA nucl
CCN(CC(=O)NC1CCS(=O)(=O)C1)C(=O)C(c1ccccc1)c1ccccc1 (stereo not given),-2.1,.
N#Cc1c(NC(=O)C2CC2)sc2c1CCCC2,.,-0.35
N=C1/C(=C\c2ccc(-c3ccc(Br)cc3)o2)C(=O)N=C2SC(N3CCOCC3)=NN12,5.2,-1
CC(=O)Nc1nc2nc(C)cc(=O)n2[nH]1,0.1,-0.041
NNC(=O)c1ccc2c(=O)n3c(nc2c1)CCC3,0.5,.
c1cc(N2CCOCC2)ccc1Nc1nc2nonc2nc1Nc1ccc(N2CCOCC2)cc1,-0.3,-0.6
COc1cccc2cc(C(=O)N3CCN=C3c3ccccc3)c(=O)oc12,2.3,0.33
C[C@H](NS(=O)(=O)c1ccccc1)C(=O)Nc1nccs1,0.8,.
Cc1c(C(=O)NCc2ccc3c(c2)OCO3)oc2ccc3c(c12)C(O)CC1(CCCCC1)O3 (stereo not given),-0.2,-0.3
O=c1nc(N2CCCC2)nc(N2CCCC2)[nH]1,-0.8,0.81

# Sorted by the number under KSHV LANA nucl (low to high): 7 of the compounds above.
structure	KSHV LANA nucl
N=C1/C(=C\c2ccc(-c3ccc(Br)cc3)o2)C(=O)N=C2SC(N3CCOCC3)=NN12	-1
c1cc(N2CCOCC2)ccc1Nc1nc2nonc2nc1Nc1ccc(N2CCOCC2)cc1	-0.6
N#Cc1c(NC(=O)C2CC2)sc2c1CCCC2	-0.35
Cc1c(C(=O)NCc2ccc3c(c2)OCO3)oc2ccc3c(c12)C(O)CC1(CCCCC1)O3 (stereo not given)	-0.3
CC(=O)Nc1nc2nc(C)cc(=O)n2[nH]1	-0.041
COc1cccc2cc(C(=O)N3CCN=C3c3ccccc3)c(=O)oc12	0.33
O=c1nc(N2CCCC2)nc(N2CCCC2)[nH]1	0.81

# More structures
SMILES,Ab BasE inh,KSHV LANA nucl
Cc1ccc(S(=O)(=O)CCC(=O)OCN2C(=O)c3ccccc3C2=O)cc1,0.1,.
O=C(O)c1cc(O)c2c(c1)[C@@H]([C@H]1c3cc(C(=O)O)cc(O)c3C(=O)c3c(O[C@H]4O[C@H](CO)[C@@H](O)[C@H](O)[C@H]4O)cccc31)c1cccc(O[C@H]3O[C@H](CO)[C@@H](O)[C@H](O)[C@H]3O)c1C2=O,8.9,0.71&0.19
COC(=O)NCC12CC3CC(CC(C3)C1)C2,1.9,.
O=C(/C=C/c1ccc(Cl)cc1)NCc1ccccn1,2.2,-0.086
CCCCNC(=O)c1ccc2c(c1)NC(=O)C(CC(C)C)N2 (stereo not given),-0.3,-0.55
N#CCn1c(COC(=O)CCc2ccc(S(=O)(=O)N3CCOCC3)cc2)nc2ccccc2c1=O,0.0,.
C/C(N)=C(/C#N)C(=O)CSc1nnc(SCC(=O)/C(C#N)=C(\C)N)s1,-2.3,.
CN(C)c1cc(-c2ccc(Cl)cc2)oc(=O)c1Cl,-0.5,.
COc1ccccc1NC(=O)c1ccc(NC(=O)COC(=O)C2CCCO2)cc1 (stereo not given),-2.6,.
CN(C)c1ccc(/C=N/c2nc3ccccc3n2Cc2ccc(Cl)cc2)cc1,-12,.
Cc1noc(-c2ccccc2)c1NC(=O)N1CCSCC1,.,-0.3
CCN(CC)CCCOc1c(C)cc(Cl)cc1Cl,-3.9,-0.55
NC1=CC(=O)c2ccccc2C1=O,5.8,0.0045
O=C(CC1OC(=O)c2ccccc21)OCC(=O)c1ccc(F)cc1 (stereo not given),0.3,.
Cc1ccc(CN2CCC(CNC(=O)Nc3ccccc3F)C2)cc1 (stereo not given),0.2,0.39
CN(Cn1nc(Nc2ccccc2F)sc1=S)C1CCCCC1,1.8,.
CCOc1ncccc1C(=O)Nc1ccc(Cl)cc1,.,-0.71
O=C(CCc1c[nH]c2ccccc12)N(Cc1ccco1)Cc1cccs1,2.2,.
CN(C)/C=N/N=C/c1cc(Cl)cc(Cl)c1O,4.0,0.55
COc1ccccc1N1C(=O)CC(SCC(=O)Nc2ccccc2)C1=O (stereo not given),0.9,0.48
O=C(O)CC(Sc1nc2sc3c(c2c(=O)[nH]1)CCCC3)C(=O)O (stereo not given),3.6,.
COc1cnc(-c2ccccc2)[nH]c1=O,.,-0.41
COc1ccc(C2NC(=O)CS2)cc1 (stereo not given),-0.5,0.47
CC(C)Nc1ncnc2scc(-c3ccccc3)c12,1.0,.
Cc1ccsc1CCNS(=O)(=O)c1ccc2[nH]c(=O)ccc2c1,1.4,0.31
CCOC(=O)N1CCC(Nc2nn3nnnc3c3ccccc23)CC1,-4.7,.
c1ccn2cc(C34CC5CC(CC(C5)C3)C4)nc2c1,1.8,.
Nc1nnnn1/N=C\C=C\c1ccccc1,0.8,.
CCn1c(COc2cccc(C)c2)nnc1SCC(=O)NC(C)(C)C,0.2,2
CC(C)=C1C(=O)Nc2ccc(S(=O)(=O)N(C)C3CCCCC3)cc21,-0.4,.
Cc1ccc(-n2cnc3cc(NCc4ccncc4)ccc32)cc1,6.4,-0.052
CSc1nc2ccccc2n1CC(=O)c1cc(C)n(C)c1C,1.9,.
Cc1nc(=S)[nH]c(C)c1CCC(=O)O,-1.0,.
OCC(O)Cn1c(COc2ccccc2)nc2ccccc21 (stereo not given),-0.6,-0.71
CCCc1cc(N2CCCCC2)n2c(nc3ccccc32)c1C#N,3.2,-0.15
FC(F)(F)c1ccc2cc(CSc3ccc(Cl)cc3)ccc2n1,-2.2,.
CCOC(=O)c1sc(NC(=O)C2C3C=CC(C3)C2C(=O)O)nc1C (stereo not given),2.6,0.086
O=C(N1CCCCCC1)N1CCN(C(=O)N2CCCCCC2)CC1,0.9,0.072
N#Cc1c(-c2ccco2)c2c([nH]c1=S)CCCC2=O,2.4,.
CCN1C2=C(C(=O)CC(C)(C)C2)C(c2ccc(OC)cc2)C2=C1CC(C)(C)CC2=O,0.5,.
C=CCn1c(-c2ccc(Cl)cc2)cnc1SCc1c(C)noc1C,2.5,.
CCN(C(=O)c1ccco1)c1nc(-c2ccccc2)cs1,-0.1,-0.047
COc1cccc(NC(=O)CC(C)NCc2nc3ccccc3[nH]2)c1 (stereo not given),-1.2,.
O=C(CSc1nnc(C2CCCCC2)o1)NN1C(=O)NC2(CCCCC2)C1=O,0.7,.
Cc1ccc(S(=O)(=O)NCCc2nnc(SCc3ccccc3)n2C)cc1,-0.5,-0.028
COCCn1c(N)cc(=O)[nH]c1=S,1.0,-0.44
CCS(=O)(=O)Nc1cccc(-c2cn3ccccc3n2)c1,-1.8,0.013
CCC(=O)N1c2cc(Cl)ccc2-n2c(nn(C(=O)CC)c2=O)N1C(=O)CC,2.5,.
CS(=O)(=O)c1ccc2nc(NC(=O)Oc3ccccc3)sc2c1,-0.8,.
COC(=O)N=Nc1c(O)[nH]c2ccc(Br)cc12,3.5,-0.67

# Arranged by formula weight (lowest first): part of the list above.
SMILES,Ab BasE inh,KSHV LANA nucl
COCCn1c(N)cc(=O)[nH]c1=S,1.0,-0.44
CCN(C(=O)c1ccco1)c1nc(-c2ccccc2)cs1,-0.1,-0.047
CCS(=O)(=O)Nc1cccc(-c2cn3ccccc3n2)c1,-1.8,0.013
C=CCn1c(-c2ccc(Cl)cc2)cnc1SCc1c(C)noc1C,2.5,.
CCC(=O)N1c2cc(Cl)ccc2-n2c(nn(C(=O)CC)c2=O)N1C(=O)CC,2.5,.

# The listing continues:
SMILES,Ab BasE inh,KSHV LANA nucl
O=C(CCS(=O)(=O)c1ccccc1)Nc1cccc(-c2nc3ccccc3o2)c1,-0.1,-0.66
O=C(CS(=O)(=O)c1ccccc1)Nc1ccccc1O,1.0,-0.2
Cc1ccc(-c2noc(CCCC(=O)N3CCCCC3)n2)cc1,0.8,-0.53
O=C1CCCN1C(=O)CCC(=O)N1CCCC1=O,0.5,-0.87
COc1cccc2cc(C(=O)OCCN3CCOCC3)c(=O)oc12,-0.9,-0.29
Cc1cc(C)nc(SCCC(=O)Nc2ccccc2)n1,-1.2,0.13
Cc1ccc(NS(=O)(=O)c2cc(C(=O)O)ccc2Br)cc1,5.7,.
CCCn1c(SCC(=O)N(C2CCCCC2)C2CCCCC2)nc2c1c(=O)n(C)c(=O)n2C,-0.2,-1.3
COc1ccc(C(=O)N=C2CCC(C#N)=C3c4cc(OC)c(OC)cc4CCN23)cc1,0.1,.
O=C(c1ccccc1)C1CCN(C(=O)Nc2ccc(Cl)cc2)CC1,1.7,.
CC1CN(C(=S)NC(=O)c2ccc(Cl)cc2)CC(C)O1 (stereo not given),-0.6,0.94
COC(=O)C(O)(C1=C(N2CCOCC2)/C(=C\c2ccccc2)CC1)C(F)(F)F (stereo not given),1.9,.
CCc1ccc(NS(=O)(=O)c2ccc3[nH]cc(C(=O)NCc4ccco4)c(=O)c3c2)cc1,-1.9,-0.13
CCN(CC)C(=O)CSc1nnc2sc3ccccc3n12,0.8,.
CC(C)Oc1ccc(/C=C/C(=O)Nc2noc3ccccc23)cc1,2.2,0.24
O=C(NC1CCCCC1)C1OC(c2ccccc2)OC1C(=O)NC1CCCCC1 (stereo not given),1.4,-0.67
N#CCCn1cc(/C=N/NC(N)=S)c(-c2ccccc2)n1,2.3,.
CC/C(Cc1ccccc1)=N/NS(C)(=O)=O,0.0,0.7
O=c1[nH]c(=O)c2[nH]cnc2[nH]1,0.3,0.75
NC(=S)n1[nH]c(-c2ccccc2)c(N=Nc2nccs2)c1=O,0.1,-0.27
Cc1c(C(=O)OCC(=O)c2ccc(Cl)s2)sc2nc3n(c(=O)c12)CCC3,-3.0,.
CNC(=O)CSc1nc2ccccc2c(=O)n1C,2.3,0.26
COC(=O)c1ccc(OCC(O)Cn2c(C)[n+](C)c3ccccc32)cc1 (stereo not given),-30,.
COc1ccc(-c2[nH]c(SC)nc(=S)c2C#N)cc1,1.1,1.3
CCS(=O)(=O)N1CCC(NC(=O)C(Cc2ccc(OC)c(OC)c2)NC(C)=O)CC1 (stereo not given),-0.4,-1.4
O=C(/C=C/c1ccccc1)OCC(=O)c1ccc[nH]1,-2.1,.
CN(C)S(=O)(=O)c1ccc(C(=O)OCC2COC(C)(C)O2)cc1 (stereo not given),1.2,.
N#CCSc1nc(-c2cccs2)cc(-c2cccs2)c1C#N,-2.8,0.066
OC(CCN1CCCC1)(c1ccccc1)C1CCCCC1 (stereo not given),1.6&-10,0.28&0.22&0.2
O=C(O)/C=C\C(=O)Nc1ccc2c(c1)OCCO2,4.1,0.26
CN(C)S(=O)(=O)Nc1ccc2c(c1)oc1ccccc12,-0.7,-0.68
CNC(C)c1ccccc1 (stereo not given),0.7,.
O=C(O)CCCNCc1ccc(Cl)cc1,0.6,-0.24
